FGF22 binding – binders of recombinant human FGF22 by thermal shift. calls only at 9.99 µM. Q9HCT0. SYPRO orange fluorescence; percent of sucrose octasulfate shift, DMSO zero. 340,000 compounds, 1.5% hits;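 active = melting point raised past a set limit in the mean and every replicate; three in four hits are not shown here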
Target sequence (Q9HCT0 whole entry, looked up): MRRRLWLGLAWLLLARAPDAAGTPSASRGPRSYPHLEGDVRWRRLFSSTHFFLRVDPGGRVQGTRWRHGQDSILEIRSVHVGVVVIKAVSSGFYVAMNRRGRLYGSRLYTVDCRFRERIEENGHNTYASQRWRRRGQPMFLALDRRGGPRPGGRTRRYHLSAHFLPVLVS
UCH37 inh – blocks the human deubiquitinase UCH37; purified proteasome/UCH37, Ub-AMC cleavage fluorescence; Q9Y5K5; inhibition, % (concentration not given with the values); 330,000 compounds, 0.33% hits; AID 588478;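 active = mean of two replicates above 20%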;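 note: 0% = compound-free wells with enzyme and 100% = wells lacking proteasome; stock transfer was 100 nL into about 20 µL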
Target sequence (Q9Y5K5 whole entry, looked up): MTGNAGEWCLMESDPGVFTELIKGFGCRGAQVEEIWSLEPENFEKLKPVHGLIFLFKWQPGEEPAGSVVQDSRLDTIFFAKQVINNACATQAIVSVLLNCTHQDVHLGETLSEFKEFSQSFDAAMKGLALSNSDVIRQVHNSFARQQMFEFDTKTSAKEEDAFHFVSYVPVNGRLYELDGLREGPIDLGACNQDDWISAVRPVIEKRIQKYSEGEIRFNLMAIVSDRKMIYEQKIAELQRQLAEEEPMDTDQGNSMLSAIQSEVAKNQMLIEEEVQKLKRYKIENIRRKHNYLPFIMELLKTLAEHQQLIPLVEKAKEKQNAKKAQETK
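system = Proteasome-associated human UCH37 deubiquitinase | amount = 0.15 nM proteasome as dispensed | medium = pH 7.4 Tris-HCl (50 mM) with ovalbumin, ATP-MgCl2, DTT | incubation = 30 min preincubation with enzyme, 25 min cleavage at room temperature | detection = AMC fluorescence 355/460 nm | read-out basis = percent inhibition | controls = no-proteasome and no-compound wells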
B2AR ag – human beta-2 adrenergic receptor agonism by FAP; response, % (concentration not given with the values); 340,000 compounds, 0.43% hits; P07550; AID 504454; Am2.2-beta2AR cells, FAP receptor internalization, flow cytometry; reference of the scale not given here;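 active = response above a set limit, near 3 SD of response in nonfluorescent compounds, cut at about 42% in these data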;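 note: stock transfer was 100 nL into about 11 µL; a reference agonist was the positive control; negative values mostly stem from fluorescent compounds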
Ecoli growth – E. coli growth inhibition. OD600 absorbance (no concentration beside the values). 330,000 compounds, 0.21% hits. Escherichia coli growth, OD600, 23 h; stronger effect = lower value;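 active = OD600 absorbance below the run mean of sample wells minus 3.6 SD, in any replicate, cut at about 0.56 in these data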;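 note: stock transfer was 300 nL into about 60 µL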
Ecoli rRNA inh – inhibits bacterial ribosomal RNA function over humanized ribosomes. E. coli WT GFP vs humanized-ribosome RFP mutants, fluorescence, 24 h; stronger effect = lower value; DMSO median 0, no signal -100. GFP signal change (wild-type ribosome), % (no concentration beside the values). 350,000 compounds, 1.6% hits. AID 720706;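 active = significant combined selectivity score with lowered wild-type GFP, culture density cut under 30%, mutant RFP and density less affected; inactive = any of these conditions unmet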; note: one replicate is shown; some compounds called inactive have numbers as strong as hits
HNF4A DNA FP – change in binding of human HNF4 alpha to DNA. P41235. HNF4a-FITC DNA binding, fluorescence polarization, 1 h. activity change, % at 10 µM. 360,000 compounds, 0.3% hits. AID 1224865; in the data active = activity change above about 30%, passing the limit was not always enough;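 note: controls were the assay level and a saturating level of protein; the project sought stronger binding though the title names inhibitors; some compounds called inactive have numbers as strong as hits; positive values seem to mean higher polarization but the record does not say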
ALR inh – inhibitors of human sulfhydryl oxidase ALR; purified ALR, DTT oxidation, H2O2 HRP-luminol luminescence; inhibition, % (test concentration not listed); 290,000 compounds, 3.8% hits; AID 485317;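 active = mean and each replicate at 75% or more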;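 note: stock transfer was 7.5 nL into about 7.5 µL; 0% = neutral wells and 100% = wells with inactivated enzyme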
Target sequence (P55789 whole entry, looked up): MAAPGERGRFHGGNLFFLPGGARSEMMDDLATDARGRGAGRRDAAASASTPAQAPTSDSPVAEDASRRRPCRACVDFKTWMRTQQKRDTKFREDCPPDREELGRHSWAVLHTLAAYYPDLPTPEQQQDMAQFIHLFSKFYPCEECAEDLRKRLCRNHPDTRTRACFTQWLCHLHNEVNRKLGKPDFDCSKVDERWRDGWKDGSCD
Ecoli rRNA inh OD600 – also measured in Ecoli rRNA inh; calls as there; OD600 change, %; measured here: OD600 growth;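 optical density of the mix in the first replicate; 0 = DMSO median and -100 = no signal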
Ecoli rRNA inh RFP – further read-out of Ecoli rRNA inh, marked with its call; RFP signal change, %; measured here: RFP humanized mutant strains;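 first replicate; 0 = DMSO median and -100 = no signal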
The depositor's hits bear a star; i = inactive; . = not tested or not shown.

SMILES,Ecoli growth,Ecoli rRNA inh OD600,Ecoli rRNA inh RFP,FGF22 binding,Ecoli rRNA inh,UCH37 inh,ALR inh,HNF4A DNA FP,B2AR ag
CC(=O)Nc1ccc(NC(=O)c2ccccc2N(C)S(C)(=O)=O)cc1,0.69,.,.,.,.,3.6,-8,-0.1,1
CCOC(=O)c1cccc(NC(=O)CCNS(=O)(=O)c2cccc3nonc23)c1,0.69,-27,-1.2,i,-24,2.6,.,-3.8,3
CCCS(=O)(=O)c1c(S(=O)(=O)CCC)c2c(N)cccn2c1C(=O)c1ccc(Br)cc1,0.67,.,.,.,.,1.6,2,3.2,22
CC(=O)c1cccc(Nc2nc(-c3ccccc3)nc3ccccc23)c1,0.68,12,2.4,i,17,-22,.,-1.1,2
N#CCc1ccc(NC(=O)c2ccc(CN3CCc4ccccc4C3)cc2)cc1,0.72,1,0.3,i,-2,3.1,0,1.4,2
Cc1ccccc1N1CC(O)(c2ccccc2)[N+]2=C1SCC2 (stereo not drawn),0.65,.,.,.,.,1.9,-1,-4.7,5
CC1C(C)N(C(=O)CCl)c2ccccc2N1C(=O)CCl (stereo not drawn),0.65,10,3.3,.,7,1.3,.,2.0,15
Cc1ccc(-c2nn(C)c(=O)c3ccccc23)cc1S(=O)(=O)NCCN(C)C,0.72,-2,-7.0,i,-1,6.7,-3,-4.3,-3

Carrying on.
SMILES,Ecoli growth,Ecoli rRNA inh OD600,Ecoli rRNA inh RFP,FGF22 binding,Ecoli rRNA inh,UCH37 inh,ALR inh,HNF4A DNA FP,B2AR ag
CS(=O)(=O)N1CCCC(C(=O)NCCCN2CCOCC2)C1 (stereo not drawn),0.71,3,-4.2,i,-1,2.2,4,3.3,-3
O=C(CSc1nnc2c(Cl)cc(C(F)(F)F)cn12)Nc1ccc2c(c1)OCO2,0.69,.,.,.,.,-0.1,.,2.3,-7
COc1ccc(NS(=O)(=O)c2cccc(C(=O)N3CCN(c4ccccc4O)CC3)c2)cc1,0.71,-18,-1.0,i,-1,0.3,.,-5.3,3
O=C(Nc1ccccn1)c1sc2cc([N+](=O)[O-])ccc2c1Cl,0.65,5,0.9,i,9,3.4,3,-3.5,16
Fc1ccc(-c2nc3ccc(Br)cn3c2Cc2ccccc2C(F)(F)F)cc1,.,-2,6.3,i,-2,.,.,6.9,.
CS(=O)(=O)C1=C(O)C(=O)N(c2ccccc2)C1c1ccccc1 (stereo not drawn),0.72,.,.,.,.,0.6,5,1.8,10
CCOc1ccc(/C=C/C(=O)OCC(=O)NCCc2ccc(OCC)c(OCC)c2)cc1OC,0.68,-16,1.2,.,-12,-8.7,-13,-1.5,-9
Cc1ccc(S(=O)(=O)N2CCC(=O)N([C@H](COCc3ccc(Cl)c(Cl)c3)Cc3ccccc3)CC2)cc1,.,12,24,i,19,.,.,0.8,.

(listing goes on)
SMILES,Ecoli growth,Ecoli rRNA inh OD600,Ecoli rRNA inh RFP,FGF22 binding,Ecoli rRNA inh,UCH37 inh,ALR inh,HNF4A DNA FP,B2AR ag
Cc1ccc(-n2nnc3c(=O)n(CC(=O)N4CCCC4)cnc32)cc1,0.73,7,-1.0,i,11,2.0,-6,0.8,3
COC(=O)c1cc2c(ccn2-c2ccc(F)cc2)n1CC(=O)OC(C)C,0.66,-2,-1.4,i,-1,-3.7,6,4.3,-17
COc1ccc(NC(=O)CCNS(=O)(=O)c2ccc3c(c2)c(=O)n(C)c(=O)n3C)cc1OC,0.69,-2,-7.0,i,4,-1.3,.,-1.3,-3
CC(C)C(=O)O/N=C1\CCS(=O)(=O)c2sccc21,.,18,4.7,i,8,.,-11,5.1,4
CCCn1c(N)c(C(=O)COC(=O)/C=C/c2ccc(OC(F)F)c(OC)c2)c(=O)[nH]c1=O,0.7,8,1.7,i,-2,-0.8,-2,2.1,6
Cc1cc(=O)oc2cc(OCC3CC(c4ccccc4Cl)=NO3)ccc12 (stereo not drawn),0.72,.,.,.,.,-29,98*,-1.4,15
CCC(C)NC(=O)c1cnc2n(c1=O)CCS2 (stereo not drawn),0.72,8,-3.8,i,5,5.5,-3,-0.1,-6
COc1ccc(N2CCN(CCCNC(=O)CN3C(=O)COc4ccccc43)CC2)cc1,0.66,2,1.2,i,8,2.5,55,-1.5,-4

Later entries
SMILES,Ecoli growth,Ecoli rRNA inh OD600,Ecoli rRNA inh RFP,FGF22 binding,Ecoli rRNA inh,UCH37 inh,ALR inh,HNF4A DNA FP,B2AR ag
S=C(c1ccc(-c2ccccc2Cl)o1)N1CCOCC1,0.67,.,.,.,.,6.1,.,4.4,-4
Cc1nc2ccccn2c1C(=O)NN=C1CCN(C)CC1,0.69,-3,1.3,i,16,3.3,3,-4.6,9
C=CCOc1ccccc1CN1CCC(n2nccc2NC(=O)C2CC2)CC1,0.64,15,-0.9,i,11,0.3,.,1.0,6
Cc1cccc(Nc2nnc(SCC(O)=C(C#N)c3nc4ccccc4[nH]3)s2)c1,0.67,3,15,i,-8,-3.4,.,12,4
Cc1c(C(=O)N2CCC2)oc2ccc(Cl)cc12,0.71,-7,-1.2,i,-6,5.8,1,1.1,-8
O=C(CCCn1c(=O)[nH]c2ccc(Br)cc2c1=O)NCc1ccc(Cl)cc1,0.68,1,-0.7,i,18,5.2,-2,0.2,-13
Cc1cc2nc(-c3ccc(NC(=O)C(C)C)cc3)oc2cc1C,0.72,.,.,.,.,.,.,-2.0,-7
Cc1ccc2c(c1)C(=O)c1ccccc1CS2=O (stereo not drawn),0.66,.,.,.,.,1.7,10,2.3,-6

More records follow.
SMILES,Ecoli growth,Ecoli rRNA inh OD600,Ecoli rRNA inh RFP,FGF22 binding,Ecoli rRNA inh,UCH37 inh,ALR inh,HNF4A DNA FP,B2AR ag
CCOC(=O)c1nn(-c2ccccc2)c(C#N)c1NC(=O)c1nn(CC)cc1Br,0.71,.,.,.,.,0.2,-12,0.6,5
CC1CN(C(=O)C(C)OC(=O)c2ccc3ncsc3c2)CC(C)O1 (stereo not drawn),0.65,13,4.1,i,22,1.5,0,1.7,2
CCc1ccccc1NC(=S)N=Nc1c(O)n(C)c2ccc(S(=O)(=O)N3CCOCC3)cc12,0.72,.,.,.,.,9.6,-2,1.1,9
Cc1c(-c2cccs2)[n+](=O)c2c(n1[O-])CCCCC2,0.69,.,.,.,.,5.7,28,1.5,0
NS(=O)(=O)c1cccc(NC(=O)COC(=O)C2(c3cccc(F)c3)CCCC2)c1,0.72,.,.,.,.,1.7,-4,3.1,-7
CC(=O)N1CCOc2ccc(S(=O)(=O)NCc3ccc(F)cc3)cc21,0.71,-1,-5.0,i,-1,1.0,-5,-2.6,-9
CC1CCN(C(=O)c2[nH]cnc2C(=O)NC2CCN(C(=O)OC(C)(C)C)CC2)CC1,0.68,5,-7.2,i,-1,1.0,-3,-3.1,-1
CCOc1cc(N2CCOCC2)c(OCC)cc1NC(=O)c1ccc(OC)cc1,0.74,-9,1.5,i,9,4.4,-9,2.0,1

(continued)
SMILES,Ecoli growth,Ecoli rRNA inh OD600,Ecoli rRNA inh RFP,FGF22 binding,Ecoli rRNA inh,UCH37 inh,ALR inh,HNF4A DNA FP,B2AR ag
O=C(c1ccc2c(c1)OCO2)N1CCC2(CC1)Oc1ccc(Cl)cc1C(=O)C21CC(c2ccc(Cl)cc2)=NO1 (stereo not drawn),.,16,2.4,i,14,1.6,.,.,.
O=C(C1CC1)N1CCN(c2ccc(O)cc2)CC1,0.65,7,-2.6,i,2,1.3,99*,-3.0,-2
O=[N+]([O-])c1ccc(N2CCSCC2)cc1O,0.63,3,-0.6,i,-1,8.1,2,-1.2,2
COc1ccc(C)cc1NC(=O)C(Sc1nncn1C)c1ccccc1 (stereo not drawn),0.64,12,-4.3,i,18,1.9,1,-6.8,-5
COC(=O)c1ccc2nccnc2c1,0.67,-2,1.8,i,22,2.4,-11,-3.0,11
COc1ccc(NC(=O)c2cc(-c3ccccc3)on2)cc1OC,0.67,3,1.6,i,0,-5.4,-3,-0.9,5
O=C(OCC(=O)N1CCCCCC1)c1ccc(Cl)c(S(=O)(=O)N2CCCC2)c1,0.68,-21,-0.3,i,-18,0.1,-25,-8.6,5
Cc1ncsc1C(=O)Nc1cccc(C(F)(F)F)c1,0.62,-10,-0.6,i,-2,0.8,-10,-0.1,-2

2 entries from above, as labelled records:
O=C(OCC(=O)N1CCCCCC1)c1ccc(Cl)c(S(=O)(=O)N2CCCC2)c1
  Ecoli growth = 0.68
  Ecoli rRNA inh OD600 = -21
  Ecoli rRNA inh RFP = -0.3
  FGF22 binding = i
  Ecoli rRNA inh = -18
  UCH37 inh = 0.1
  ALR inh = -25
  HNF4A DNA FP = -8.6
  B2AR ag = 5

Cc1ccccc1N1CC(O)(c2ccccc2)[N+]2=C1SCC2 (stereo not drawn)
  Ecoli growth = 0.65
  Ecoli rRNA inh OD600 = .
  Ecoli rRNA inh RFP = .
  FGF22 binding = .
  Ecoli rRNA inh = .
  UCH37 inh = 1.9
  ALR inh = -1
  HNF4A DNA FP = -4.7
  B2AR ag = 5

More records follow:
SMILES,Ecoli growth,Ecoli rRNA inh OD600,Ecoli rRNA inh RFP,FGF22 binding,Ecoli rRNA inh,UCH37 inh,ALR inh,HNF4A DNA FP,B2AR ag
O=C1NCCN(Cc2c(F)cccc2Cl)C1CC(=O)N1CCCCO1 (stereo not drawn),0.72,13,2.9,i,18,-1.7,-11,-3.1,4
COc1cc(/C=C(\C#N)C(=O)NCC2CCCO2)c([N+](=O)[O-])cc1OC (stereo not drawn),0.64,.,.,.,.,2.5,-49,-3.4,2
CCOC(=O)Cn1c(CN2CC(C)OC(C)C2)nc2c1c(=O)n(C)c(=O)n2C (stereo not drawn),0.77,23,1.1,i,19,-1.4,-6,-2.4,-2
O=C(NC1CC(=O)c2sccc21)c1cccc(C(F)(F)F)c1 (stereo not drawn),0.71,-4,-2.6,i,6,5.5,-10,1.1,2
CCC1(C)Cc2ccccc2-c2nc(NCCCO)n(C)c(=O)c21 (stereo not drawn),0.62,-77,-7.8,i,-49,i,.,-0.1,-1
O=C(COc1ccc(S(=O)(=O)NCc2ccccc2)cc1)NCC1CCCO1 (stereo not drawn),0.71,.,.,.,.,0.7,-14,3.9,2
CN(CC(=O)Nc1ccc(F)cc1)C(=O)CSc1ncccn1,0.7,14,-2.1,i,14,-2.4,-9,-3.0,-5
Cc1ccc(-c2c[n+](CC(=O)Nc3c(C)cccc3C)c3n2CCC3)cc1,0.67,-3,-1.7,i,9,4.6,-2,2.3,15

Additional entries follow:
SMILES,Ecoli growth,Ecoli rRNA inh OD600,Ecoli rRNA inh RFP,FGF22 binding,Ecoli rRNA inh,UCH37 inh,ALR inh,HNF4A DNA FP,B2AR ag
CCNC(=O)CSc1nnc(-c2ccccc2Br)n1-c1cccc(C(F)(F)F)c1,0.69,2,-1.6,i,4,4.7,.,0.0,-8
Cc1cc(NC(=O)COC(=O)CCNS(=O)(=O)c2cccc(C(F)(F)F)c2)no1,0.67,5,2.3,i,16,2.2,-4,2.1,1
COc1c(S(=O)(=O)N2CCN(c3ccc(F)cc3)CC2)ccc(Cl)c1Cl,0.73,.,.,.,.,4.0,4,-1.5,4
CC(C)(C)Cc1nnc(NC(=O)Cc2cccs2)s1,0.7,5,-2.5,i,-4,-0.5,12,-12,-10
Clc1ccsc1-c1ccnc(-n2cccc2)n1,0.67,2,-3.5,i,6,-3.4,3,-1.9,10

Screens deposited in PubChem BioAssay by several laboratories.

Not all compounds are listed (hit frequency here may not be typical).
